Assay outcomes: PubChem, National Center for Advancing Translational Sciences (NCATS)
AID923 = qHTS Assay for Allosteric/Competitive Inhibitors of Caspase-1: Spectroscopic Profiling in AFC Spectral Region. compound fluorescence, AFC spectral region (405/520 nm); almost no hit is shown here. Potency, µM (top dose mostly 57.5 µM), for the others: top-dose fluorescence increase, most hits filed as activators. 75,000 compounds, 1.1% hits; active = well fitted activation curve with a large enough effect; inconclusive = small, poorly fitted or top-dose-only effect;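 note: potency is the fitted concentration of half-maximal effect; 0% is about no effect; scaled to a free AFC standard on each plate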
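Compound autofluorescence profiled at 405 nm ex/520 nm em during kinetic caspase 1 run (50 nM enzyme, 5 uM Ac-WEHD-AFC, HEPES pH 7.5, 10 mM DTT). Titration up to 57 uM; baseline from regression intercept, normalized to AFC standard curve.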
Resorufin autofl = resorufin region autofluorescence; max dye-equivalent concentration, M; Compound fluorescence, resorufin region 547/598 nm, buffer; active compounds read high; 59,000 compounds, 0.04% hits; AID 588; active = above 10 nM dye equivalent; inconclusive = 1 to 10 nM; inactive = 1 nM or less; a few of its hits are not listed in these tables; note: highest value over a series up to 38 µM
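Read-out: intrinsic compound fluorescence at ex 547/em 598 nm after 15 min at RT in pH 8.0 Tris (100 mM). Values expressed as resorufin-equivalent concentration from per-plate standard series.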
TSHR agonist = TSH receptor (human) agonism. 73,000 compounds, 0.48% hits. AID 926. HEK293-CNG-TSHR cells (CNG channel as cAMP sensor), membrane potential dye, cAMP. Potency, µM (titrated, usually from 57.1 µM), inactives show at the top dose activation, hits mostly activators; active = well fitted activation curve of enough size with the parental cells flat; inconclusive = any curve in the parental cells; inactive = parental cells flat and receptor cells flat or falling; note: potency is the fitted concentration of half-maximal effect; % of control where 0% means no effect; weak receptor curves with flat parental cells got no call and are not listed
Target sequence (P16473 whole entry, looked up): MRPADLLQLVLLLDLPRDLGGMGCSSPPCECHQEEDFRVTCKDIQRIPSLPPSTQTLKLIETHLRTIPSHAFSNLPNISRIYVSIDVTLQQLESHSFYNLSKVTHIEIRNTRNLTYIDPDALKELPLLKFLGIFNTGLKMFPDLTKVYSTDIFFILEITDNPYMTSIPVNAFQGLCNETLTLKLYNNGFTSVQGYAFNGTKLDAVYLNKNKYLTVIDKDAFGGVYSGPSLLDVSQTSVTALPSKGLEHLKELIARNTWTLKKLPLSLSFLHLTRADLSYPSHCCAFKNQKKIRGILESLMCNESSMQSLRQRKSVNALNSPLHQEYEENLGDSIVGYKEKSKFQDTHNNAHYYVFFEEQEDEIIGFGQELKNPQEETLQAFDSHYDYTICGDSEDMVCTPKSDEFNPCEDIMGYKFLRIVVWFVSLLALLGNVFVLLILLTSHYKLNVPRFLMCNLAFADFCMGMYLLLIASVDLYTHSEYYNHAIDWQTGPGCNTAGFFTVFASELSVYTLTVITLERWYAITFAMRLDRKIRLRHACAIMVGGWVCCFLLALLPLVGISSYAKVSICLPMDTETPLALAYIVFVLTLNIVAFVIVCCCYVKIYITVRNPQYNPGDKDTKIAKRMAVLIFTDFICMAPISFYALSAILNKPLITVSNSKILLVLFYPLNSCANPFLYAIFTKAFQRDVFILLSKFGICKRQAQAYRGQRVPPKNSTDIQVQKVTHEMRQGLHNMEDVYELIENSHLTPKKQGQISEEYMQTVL
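cAMP rise detected as CNG-channel membrane depolarization by fluorescent dye (emission 590 nm), 30 min after compound, following 60 min dye loading containing 100 uM RO 20-1724 at room temperature. Cells: TSHR/CNG HEK 293, with parental CNG HEK 293 as control.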
A647 fluor = A647 region autofluorescence | Compound fluorescence, A647 channel (570/671 nm), Tris buffer | max dye-equivalent concentration, M | 59,000 tested, under 10 active; active means above 1 µM dye equivalent; inconclusive means 0.1 to 1 µM; inactive means 0.1 µM or less;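 note: values scaled relative to a standard on each plate; highest value over a series up to 38 µM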
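Each compound's intrinsic fluorescence at 570 nm excitation and 671 nm emission is measured across its concentration series in 100 mM Tris, pH 8.0, after 15 min at room temperature, and reported relative to an A647 curve.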
A488 autofl = A488 region autofluorescence | compound autofluorescence, A488 spectral region, dye equivalency; active compounds read high | max dye equivalency, M | 59,000 compounds, 0.1% hits | AID 591; active = above 10 nM dye equivalent; inconclusive = 1 to 10 nM; inactive = 1 nM or less; about half of its hits are not listed in these tables;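 note: highest value over a series up to 38 µM; compound alone in buffer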
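Compound autofluorescence was read in 100 mM Tris pH 8.0 after 15 min at room temperature, ex 480 nm/em 540 nm. Intensities were converted to A488 dye-equivalent concentration using an on-plate six-point A488 standard curve.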
Starred values were filed as active, the others as inactive; i = inactive; u = inconclusive; x = no result given; [ ] = remark or other dose. These rows are one share of the data, so the mix of outcomes need not match the whole.

SMILES | AID923 | Resorufin autofl | TSHR agonist | A647 fluor | A488 autofl
COC(=O)c1ccc(N2C(=O)CC(N(C)CCc3ccc(OC)c(OC)c3)C2=O)cc1 (stereo not drawn) | 2.6% | x | 5% | x | x
O=C(Nc1ccccc1-c1ccccc1)C1CCCN(c2ncccn2)C1 (stereo not drawn) | 1.9% | i | u | 1e-09 | i
CCc1nnc(NC(=O)C2CCN(S(=O)(=O)Cc3ccccc3)CC2)s1 | 3.2% | i | 1% | 4.1e-08 | i
O=C(COc1ccc(Cl)cc1Cl)NCCCn1ccnc1 | -1.3% | i | 0% | 7.8e-09 | i
Cc1ccc(CCNC(=O)C2CCCN(S(=O)(=O)c3c(C)noc3/C=C/N(C)C)C2)cc1 (stereo not drawn) | 4.4% | x | -9% | x | x
O=C1CCC(=O)N1CC(=O)N1c2ccccc2Sc2ccccc21 | 1.8% | x | 6% | x | x
Cc1ccc(C)c(N2CCN(S(=O)(=O)c3ccc4[nH]c(=O)c(=O)[nH]c4c3)CC2)c1 | -0.7% | i | 8% | 6.9e-09 | i
CCCCN1C(=O)c2ccc(C(=O)NC3=NCCS3)cc2C1=O | 1.1% | i | -12% | 2.4e-08 | i
c1ccc2[nH]c(-c3nc4ccccc4[nH]3)nc2c1 | 6.2% | x | 12%[11.4 µM] | x | x
COC(=O)C1C(=O)CC(C)(O)C(C(=O)OC)C1/C=C/c1ccccc1 (stereo not drawn) | 2.3% | x | 24% | x | x
COc1ccc(-c2csc(NC(=O)Cn3nc(C)cc3C)n2)cc1 | 0.8% | i | -10% | 1e-09 | i
COc1ccc2c(c1)CCc1c(C(=O)Nc3ccn(Cc4ccc(C)cc4)n3)noc1-2 | -0.1% | i | 0% | 1e-09 | i
CCOC(=O)N1CCN(C(=O)CCSCCc2ccncc2)CC1 | -2.6% | i | -4% | 1e-09 | i
CCN(CC)S(=O)(=O)c1ccc(NC(=O)COc2c(OC)cccc2OC)cc1 | -0.7% | i | u | 1e-09 | i
CC(C)OC(=O)c1nnn(-c2nonc2N)c1CN1CCc2ccccc2C1 | 2.0% | i | 6% | 2.9e-08 | i
COc1ccccc1NC(=O)CSc1nnc(Cc2cccn2C)n1CCc1ccccc1 | 2.9% | i | u | 3.4e-08 | i
NC(=O)SC/C(=N\S(=O)(=O)c1ccccc1)Nc1ccccc1 | 1.4% | i | -1% | 2.3e-08 | i
O=C(CN1C(=O)C2C3C=CC(C3)C2C1=O)Nc1cccc2c1CCCC2 (stereo not drawn) | 0.4% | i | u | 2e-09 | i
CCOC(=O)C1C(c2cccs2)NC(=O)NC1(O)C(F)(F)F (stereo not drawn) | 0.3% | i | 2% | 1.7e-08 | i
O=C(c1ccccc1)c1nc[nH]c1C(=O)Nc1ccccc1 | 1.7% | i | 9% | 1e-09 | i
Cc1cccc2cc(COC(=O)C(C)(C)C)c(=O)[nH]c12 | 1.2% | i | 1% | 2.4e-08 | i
O=C(Nc1ccon1)c1sc2ccccc2c1Cl | -0.3% | i | 8% | 1e-09 | i
CCCOC(=O)C1C2C=C[C@]3(CN(CCc4ccccc4)C(=O)[C@H]13)O2 (stereo partly drawn) | 1.1% | i | -3% | 5.6e-08 | i
COc1ccccc1N1CCN(C(CNC(=O)c2ccc3c(c2)OCO3)c2cccnc2)CC1 (stereo not drawn) | -2.5% | i | 10% | 2.6e-08 | i
COc1ccc(OCC(=O)Nc2ccc3c(c2)nc2n3CCSC2)cc1 | 9.6% | i | -26% | 2.6e-08 | i
O=C(O)C1CCN(C(=O)c2scc3c2OCCO3)CC1 | 1.7% | i | u | 2.9e-08 | i
O=C(CCn1c(=O)c2sccc2n(CC(=O)OCc2ccccc2)c1=O)NCc1ccco1 | 0.1% | i | -2% | 2.1e-08 | i
c1nc(N2CCC3(CC2)OCCO3)c2c3c(sc2n1)CCCC3 | 0.2% | i | u | 4.3e-08 | i
CCOc1ccccc1NC(=O)CSc1nnc(-c2ccccn2)n1Cc1ccco1 | 1.8% | i | 6% | 1e-09 | i
CS(=O)(=O)N(Cc1ccccc1)c1ccc(C(=O)NC2CCCCC2O)cc1 (stereo not drawn) | -0.5% | x | -2% | x | x
Cc1ccccc1-n1c(C)nnc1SCC(=O)N1CC(=O)Nc2ccccc21 | 0.6% | i | 0% | 9.8e-09 | i
COc1ccccc1N1CCN(Cc2nc(N)nc(Nc3ccc(C)c(Cl)c3)n2)CC1 | 1.1% | i | 3% | 1e-09 | i

(next part)
canonical_smiles	AID923	Resorufin autofl	TSHR agonist	A647 fluor	A488 autofl
COc1ccccc1-c1nnc(SCC(=O)O)n1C	-1.4%	i	10%	7.3e-09	i
O=C(c1cccc(F)c1)N1CCC[C@@]2(CCN(c3ccccc3)C2)C1	1.2%	i	6%	1.1e-08	i
CN(CC(=O)NCCC1=CCCCC1)S(=O)(=O)c1ccc2c(c1)c(=O)n(C)c(=O)n2C	-2.5%	x	5%	x	x
Clc1ccc(Cn2ncc3c(NCc4cccnc4)ncnc32)cc1	-3.0%	i	6%	3.8e-08	i
CCC(=O)Nc1cccc(NC(=O)CSc2nnc(C3CC3)n2C)c1	0.1%	i	1%	3.8e-08	i
NC(=O)C1CCN(C(=O)c2ccc(C(F)(F)F)cc2)CC1	-1.3%	i	-3%	1e-09	i
O=C(CCN1CCN(C/C=C/c2ccccc2)CC1)Nc1ccccc1	-0.8%	x	19%[11.4 µM]	x	x
c1ccc(C(CN2CCOCC2)c2ccccc2)cc1	2.1%	x	7%[11.4 µM]	x	x

Quoted at random: 2 records from the list, in no set order.
canonical_smiles	AID923	Resorufin autofl	TSHR agonist	A647 fluor	A488 autofl
COc1ccccc1-c1nnc(SCC(=O)O)n1C	-1.4%	i	10%	7.3e-09	i
CN(CC(=O)NCCC1=CCCCC1)S(=O)(=O)c1ccc2c(c1)c(=O)n(C)c(=O)n2C	-2.5%	x	5%	x	x

The list goes on:
canonical_smiles	AID923	Resorufin autofl	TSHR agonist	A647 fluor	A488 autofl
CN1CCN(C(=O)N2CCNC2=O)CC1	0.8%	i	-9%	9.6e-09	i
N#CC1=C(C=Nc2ccccc2O)CCC1	x	i	x	6.1e-08	i
CCC(Sc1nc(=O)cc(N)n1-c1cccc(C)c1)C(=O)Nc1cc(C)on1 (stereo not drawn)	-1.9%	i	-3%	1.5e-09	i
CC(Sc1nc2ccccc2s1)C(=O)N1CCOCC1 (stereo not drawn)	0.3%	i	12%[11.4 µM]	1.1e-08	i
CC(C)c1ccccc1NC(=O)c1cccnc1	1.4%	i	-1%	3.2e-08	i
Cc1ccc(Sc2oc(/C=N/n3cnnc3)cc2Br)cc1	2.3%	x	u	x	x
C/C(NCC(C)(C)CN(C)C)=C(/C#N)C(=O)NCc1ccccc1	-2.5%	i	4%	4.6e-08	i
Cn1c(=O)c2c(nc(OCC3COC(C)(C)O3)n2Cc2ccccc2F)n(C)c1=O (stereo not drawn)	-1.3%	i	29%	1e-09	i
O=C(N1CCOCC1)N1CCC(n2nnc3cc(F)ccc32)CC1	0.8%	i	-1%	7.6e-09	i
Cc1nnc(SCC(=O)Nc2ccc3c(c2)OCCO3)n1CC1CCCO1 (stereo not drawn)	1.9%	i	-3%	1e-09	i
CC1CN(S(=O)(=O)c2cccs2)CC(C)O1 (stereo not drawn)	3.4%	i	0%	1e-09	i
COc1ccc(CC(=O)N2CCN(C(=O)c3ccco3)CC2)cc1	0.4%	i	-4%	1e-09	i
COc1ccc(CCn2c(-c3ccco3)nc3ccccc3c2=O)cc1OC	-1.4%	x	u	x	x
Cn1c(=O)[nH]c(=O)c2[nH]c(NCCCN3CCOCC3)nc21	-0.8%	i	15%	1e-09	i
CCOc1ccc(N(C(C)C(=O)NC2CCCCCC2)S(C)(=O)=O)cc1 (stereo not drawn)	0.6%	x	u	x	x
CC1CCCN(C(=O)CSc2nnc3n(C4CCCC4)c(=O)c4ccccc4n23)C1 (stereo not drawn)	0.0%	i	-11%	5.9e-09	i

Single values from the results shown.
CCOc1ccc(N(C(C)C(=O)NC2CCCCCC2)S(C)(=O)=O)cc1 (stereo not drawn) @ AID923 = 0.6%
COc1ccc(CCn2c(-c3ccco3)nc3ccccc3c2=O)cc1OC @ AID923 = -1.4%
O=C(N1CCOCC1)N1CCC(n2nnc3cc(F)ccc32)CC1 @ TSHR agonist = -1%
CC1CCCN(C(=O)CSc2nnc3n(C4CCCC4)c(=O)c4ccccc4n23)C1 (stereo not drawn) @ TSHR agonist = -11%
CC1CN(S(=O)(=O)c2cccs2)CC(C)O1 (stereo not drawn) @ A647 fluor = 1e-09

Next part:
canonical_smiles	AID923	Resorufin autofl	TSHR agonist	A647 fluor	A488 autofl
COc1ccccc1CNc1ccnc(-c2ccc(N(C)C)cc2)n1	7.1%	i	25%	2.9e-08	i
COc1ccc(Oc2ncc3nc(C)c(=O)n(Cc4ccc(F)cc4)c3n2)cc1	5.3%	i	u	1e-09	i
COC(=O)Cn1nc(-c2ccccc2)n(-c2ccccc2)c1=S	-1.0%	i	0%[11.4 µM]	1.9e-09	i
O=C(c1csnn1)N1CCC2(CC1)CCN(C(c1ccccc1)c1ccccc1)CC2	-3.0%	i	13%	1.3e-08	i
COc1ccc(Cl)cc1NC(=O)CN1C(=O)CCS(=O)(=O)c2ccccc21	-0.5%	i	-3%	7.2e-09	i
CN1CCCC2(CCN(C(=O)c3cccc(F)c3)CC2)C1	-0.3%	i	3%	4.9e-09	i
CN(CC(=O)N1CCN(c2ccc(F)cc2)CC1)S(=O)(=O)c1ccc(F)cc1	-2.2%	i	0%	4.3e-08	i
CCOc1ccccc1Cn1c(=O)oc2ccc(C)cc21	0.3%	i	u	1e-09	i
COc1ccc(-c2nnc(SCC(=O)NC(C)c3ccccc3)o2)cc1 (stereo not drawn)	-1.1%	x	12%	x	x
O=C1CC(=O)CC(c2ccco2)C1	-0.4%	i	-1%[11.4 µM]	1e-09	i
COC(=O)[C@@]1(Cc2ccc(OC)cc2)[C@H]2c3cc(C(=O)N(C)C)[nH]c3C[C@H]2CN1C(=O)c1ccccc1	-1.9%	x	12%	x	x
CCc1nc2ccccc2c(C(=O)OCC(=O)Nc2ccc(S(=O)(=O)N3CCOCC3)cc2)c1C	0.1%	i	-14%	1.4e-08	i
CC(=O)OCc1c(F)c(F)c(-n2nc(C)cc2C)c(F)c1F	0.1%	i	-4%	3.1e-08	i
Cc1ccc(Cn2nnc3c(=O)n(Cc4cccc(C)c4)cnc32)cc1	2.2%	i	u	3.7e-08	i
O=C(Nc1ccccc1)N1CCC(C(=O)N2CCN(S(=O)(=O)c3cccc(F)c3)CC2)CC1	0.6%	i	u	1.1e-09	i
CC(NC(=O)COc1ccccc1)C(=O)OCC(=O)c1cc2ccccc2o1 (stereo not drawn)	0.3%	i	3%	1.9e-08	i
CCCN(Cc1cc2ccc(C)cc2[nH]c1=O)C(=O)c1cccnc1	-1.4%	i	16%	1e-09	i
COc1ccc(S(=O)(=O)N2CCN(C)CC2)cc1Br	1.9%	x	-4%	x	x
CCCCCCCCCCCCCCCCCCOC[C@@H](COP(=O)([O-])OCC[N+](C)(C)C)OC	-3.3%	i	5%	5.3e-08	i
Cc1cccc(OCc2nnc(N)s2)c1	0.3%	i	7%	5.7e-09	i
Cc1cc(C)nc(N2CCC(C(=O)N3CCN(c4cc(Cl)ccc4C)CC3)CC2)n1	0.9%	i	3%	1e-09	i
Cn1cc(-c2nc3cncnc3n(C3CC3)c2=O)c2ccccc21	8.5%	i	2%	1e-09	i
COc1ccc(-c2nc(C#N)c(N3CCCCCC3)o2)cc1	-1.1%	i	53%	1.1e-08	i
CCOc1ccc(NC(=O)N(C2CCCCCC2)C2CCN(C(C)=O)CC2)cc1	-0.2%	i	-3%[11.4 µM]	5.6e-09	i
